# Source: PubChem BioAssay (Broad Institute)
# FGF22 binding – shifts melting point of recombinant human FGF22; recombinant FGF22 thermal shift, SYPRO orange fluorescence; percent of sucrose octasulfate shift, DMSO zero; 340,000 tested, 1.5% active; calls only at 9.99 µM; Q9HCT0;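 active means melting point raised past a set limit in the mean and every replicate; three in four hits are not shown here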
# Target sequence (Q9HCT0 whole entry, looked up): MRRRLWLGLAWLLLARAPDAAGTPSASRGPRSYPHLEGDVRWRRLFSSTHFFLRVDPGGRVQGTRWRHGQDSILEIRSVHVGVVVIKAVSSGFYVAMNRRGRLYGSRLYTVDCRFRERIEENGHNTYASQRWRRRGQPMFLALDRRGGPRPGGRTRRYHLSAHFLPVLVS
# Calls only; i = inactive. Only part of the results is shown, so the mix of outcomes need not match the whole.
no.	molecule	FGF22 binding
1	COCCOC(=O)N1C(=O)[C@@]2(c3cc(C#CCCO)ccc31)[C@H](c1ccccc1OCCO)N1[C@H](c3ccccc3)[C@H](c3ccccc3)OC(=O)[C@H]1[C@@H]2C(=O)N1CCc2cc(OC)c(OC)cc2C1	i
2	CC(=O)N1CC2(C1)[C@H](c1ccccc1)[C@@H](CO)N2S(=O)(=O)c1ccccc1	i
3	O=C(CN1CCOCC1)NCC[C@H]1CC[C@@H](NS(=O)(=O)c2ccc(F)cc2)[C@@H](CO)O1	i
4	COc1cc2c(cc1OC)CN(C(=O)[C@@H]1[C@H]3C(=O)O[C@H](c4ccccc4)[C@H](c4ccccc4)N3[C@H](c3ccc(O)cc3)[C@@]13C(=O)Nc1ccccc13)CC2	i
5	CCCc1cn(CC[C@H]2CC[C@@H](NC(=O)Cc3cccnc3)[C@H](CO)O2)nn1	i
6	C[C@@H]1CN([C@@H](C)CO)C(=O)c2cc(C#CCc3ccccc3)cnc2O[C@H]1CN(C)Cc1cccc(F)c1	i
7	CCC(=O)N1C[C@H](C)[C@@H](OC)CN(C)C(=O)c2cc(NC(=O)C3CCCCC3)ccc2OC[C@H]1C	i
8	COc1ccc(S(=O)(=O)N(C)C[C@@H]2Oc3ccc(NC(=O)Nc4ccccc4)cc3CC(=O)N([C@H](C)CO)C[C@H]2C)cc1	i
9	COCC(=O)Nc1ccc2c(c1)C(=O)N(C)[C@@H]1CC[C@H](CC(=O)OC)O[C@@H]1CO2	i
10	COc1cccc(-c2cc(CNC(=O)[C@H]3O[C@@H](n4cnc(C(N)=O)n4)[C@H](O)[C@@H]3O)no2)c1	i
11	O=C(C[C@H]1C[C@H]2c3cc(NC(=O)C4CCC4)ccc3O[C@H]2[C@H](CO)O1)NCc1ccncc1	i
12	Cc1noc(C)c1S(=O)(=O)N(C)C[C@@H]1Oc2ccc(NS(=O)(=O)c3cccs3)cc2C(=O)N([C@@H](C)CO)C[C@@H]1C	i
13	CC(C)[C@H]1COCc2cn(nn2)CC[C@H](Cc2ccccc2)C(=O)N1	i
14	O=C(CC(F)(F)F)N1C[C@@H]2[C@H](c3ccccc31)[C@@H](CO)N2C(=O)CN1CCOCC1	i
15	CCS(=O)(=O)Nc1ccc2c(c1)C(=O)N(C)C[C@@H](OC)[C@@H](C)CN(C(=O)C1CC1)[C@H](C)CO2	i
16	CCc1csc(N2[C@H](CO)[C@@H](c3ccc(-c4ccc(F)cc4)cc3)[C@@H]2C#N)n1	i
17	CN1c2ccc(-c3ccc(F)cc3)cc2[C@@H]2[C@@H](CCN2C(=O)Cc2ccccn2)[C@H]1CO	i
18	CO[C@@H]1CN(C)C(=O)c2ccc(NC(=O)Cc3ccccc3)cc2OC[C@@H](C)N(C(C)=O)C[C@@H]1C	i
19	C/C=C/c1ccc2c(c1)O[C@@H](CN(C)S(=O)(=O)c1ccccc1)[C@@H](C)CN([C@@H](C)CO)S2(=O)=O	i
20	O=S(=O)(NC[C@@H]1N[C@H](CO)[C@@H]1c1ccc(C2=CCCC2)cc1)c1ccccc1	i
21	O=C(NC1CCCCC1)[C@@H]1[C@@H](CO)[C@@H]2Cn3c(cccc3=O)[C@@H]2N1C(=O)CC1CC1	i
22	C[C@@H]1CN([C@H](C)CO)C(=O)c2cccc(NC(=O)c3ccc(-c4nccs4)cc3)c2O[C@H]1CN(C)S(=O)(=O)c1cn(C)cn1	i
23	O=C(C[C@@H]1C[C@H]2c3cc(NS(=O)(=O)c4ccccc4)ccc3O[C@H]2[C@H](CO)O1)N1CCOCC1	i
24	C[C@H](NC(=O)N(C)C[C@@H]1OCc2ccccc2-c2ccccc2C(=O)N([C@@H](C)CO)C[C@@H]1C)c1ccccc1	i
25	Cc1ccc(OC(=O)N(C)C[C@@H]2OCc3ccccc3-c3ccccc3C(=O)N([C@H](C)CO)C[C@H]2C)cc1	i
26	COc1ccc(-c2ccc3c(c2)[C@H]2[C@H](CCN2C(=O)C2CC2)[C@@H](CO)N3C)cc1	i
27	C[C@@H]1CN([C@@H](C)CO)C(=O)Cc2cc(NS(=O)(=O)c3ccc(F)cc3)ccc2O[C@@H]1CN(C)C(=O)Nc1ccc(C(F)(F)F)cc1	i
28	C[C@H]1CN([C@@H](C)CO)C(=O)c2cc(C3=CCCC3)cnc2O[C@@H]1CN(C)S(C)(=O)=O	i
29	COc1ccc(NC(=O)Nc2ccc3c(c2)C(=O)N([C@H](C)CO)C[C@H](C)[C@H](CN(C)Cc2ccc(C(F)(F)F)cc2)OCCCC[C@@H](C)O3)cc1	i
30	C[C@@H]1CN([C@H](C)CO)C(=O)c2cccc(NC(=O)c3ccncc3)c2O[C@@H]1CN(C)S(=O)(=O)c1ccc(Cl)cc1	i
31	CO[C@@H]1CN(C)C(=O)c2ccc(NS(=O)(=O)c3cn(C)cn3)cc2OC[C@@H](C)N(Cc2cccc(F)c2)C[C@@H]1C	i
32	CO[C@H]1CN(C)C(=O)c2ccc(NC(=O)c3nc4ccccc4s3)cc2OC[C@H](C)N(Cc2ccncc2)C[C@H]1C	i
33	C[C@@H]1CN([C@@H](C)CO)C(=O)c2cc(C#CCN(C)C)cnc2O[C@H]1CN(C)C(=O)Nc1cccc(F)c1	i
34	CC=Cc1ccc2n(c1=O)C[C@@H]1[C@@H](CO)[C@H](C(=O)NCc3ccc4c(c3)OCO4)[C@H]2N1C(=O)C1CC1 (mixture of isomers)	i
35	CN1c2ccc(C3=CCCCC3)cc2[C@@H]2[C@@H](CCN2C(=O)Cc2ccccn2)[C@H]1CO	i
36	O=C(C1CCOCC1)N1CC[C@@H]2[C@H]1c1cc(-c3cccc(F)c3)ccc1N[C@@H]2CO	i
37	C[C@H](CO)N1C[C@H](C)[C@@H](CN(C)C(=O)Nc2cccc3ccccc23)Oc2c(NC(=O)C3CCOCC3)cccc2C1=O	i
38	C[C@H]1CN([C@@H](C)CO)S(=O)(=O)c2ccc(/C=C/c3ccccc3)cc2O[C@@H]1CN(C)C(=O)CN1CCOCC1	i
39	CO[C@@H]1CN(C)C(=O)c2cc(NC(=O)C3CCC3)ccc2OC[C@@H](C)N(Cc2ccc(F)cc2)C[C@H]1C	i
40	CC(C)NC(=O)Nc1ccc2c(c1)C(=O)N([C@@H](C)CO)C[C@@H](C)[C@@H](CN(C)C(=O)CCCN(C)C)OCCCC[C@H](C)O2	i
41	O=C(C[C@H]1C=C[C@@H](NC(=O)c2ccc3c(c2)OCO3)[C@H](CO)O1)NCc1ccc(Cl)cc1	i
42	C[C@H]1CN([C@@H](C)CO)C(=O)c2cc(NC(=O)NC3CCCCC3)ccc2O[C@H]1CN(C)S(=O)(=O)c1ccccc1	i
43	CC(C)NC(=O)N1CCCCN2[C@H](C1)[C@@H](c1ccc(C#CC3CC3)cc1)[C@@H]2CO	i
44	CCS(=O)(=O)NCC[C@H]1CC[C@@H](NC(=O)C2CCCC2)[C@H](CO)O1	i
45	C[C@@H]1CN([C@H](C)CO)C(=O)c2cc(NC(=O)Nc3ccccc3)ccc2O[C@H]1CN(C)S(=O)(=O)c1ccc(Cl)cc1	i
46	O=C(C[C@@H]1CC[C@H]2[C@@H](COC[C@H](O)CN2C(=O)c2ccccc2F)O1)N1CCN(c2ccccc2)CC1	i
47	CC(=O)N1C[C@H]2[C@@H](c3ccccc31)[C@H](CO)N2C(=O)CC1CC1	i
48	COc1ccc(NC(=O)N2C[C@@H](O)COC[C@H]3O[C@H](CC(=O)NC4Cc5ccccc5C4)CC[C@@H]32)cc1	i
49	CO[C@H]1CN(C)C(=O)c2cc(NC(C)=O)ccc2OC[C@@H](C)N(CC2CC2)C[C@@H]1C	i
50	C[C@@H]1CN([C@@H](C)CO)C(=O)c2cc(NS(=O)(=O)c3cccs3)ccc2O[C@@H]1CN(C)Cc1ccc(-c2ccccc2)cc1	i
51	COc1ccc(S(=O)(=O)N(C)C[C@H]2OCCCC[C@H](C)Oc3ccc(NC(=O)NC4CCCCC4)cc3C(=O)N([C@H](C)CO)C[C@H]2C)cc1	i
52	C[C@@H]1CCCCO[C@H](CN(C)S(=O)(=O)c2ccccc2)[C@H](C)CN([C@H](C)CO)C(=O)c2cc(NC(=O)Nc3ccccc3)ccc2O1	i
53	Cc1ccc(S(=O)(=O)N(C)C[C@H]2Oc3ccc(NC(=O)Nc4ccc(C(F)(F)F)cc4)cc3CC(=O)N([C@@H](C)CO)C[C@H]2C)cc1	i
54	CO[C@@H]1CN(C)C(=O)c2cc(NS(C)(=O)=O)ccc2OC[C@H](C)N(C(=O)C2CC2)C[C@@H]1C	i
55	COc1ccccc1-c1ccc2c(c1)O[C@@H](CN(C)CC1CCOCC1)[C@@H](C)CN([C@@H](C)CO)S2(=O)=O	i
56	O=C(c1ccccc1F)N1C[C@@H]2[C@H](c3ccccc31)[C@@H](CO)N2C(=O)c1ccccc1	i
57	Cc1ccc(S(=O)(=O)Nc2ccc3c(c2)C(=O)N([C@@H](C)CO)C[C@H](C)[C@H](CN(C)Cc2ccc(C(=O)Nc4ccccc4N)cc2)O3)cc1	i
58	Cc1noc(C)c1NC(=O)N(C)C[C@H]1Oc2ccc(NC(=O)C3CC3)cc2CC(=O)N([C@H](C)CO)C[C@H]1C	i
59	O=C(OC[C@@H]1[C@H]2c3ccccc3O[C@]1(CO)N=C1Sc3ccc([N+](=O)[O-])cc3C(=O)N12)c1ccccc1	i
60	COc1ccc(NC(=O)Nc2ccc3c(c2)C(=O)N([C@@H](C)CO)C[C@@H](C)[C@H](CN(C)C(=O)Nc2ccccc2)OCCCC[C@H](C)O3)cc1	i

# Next section.
no.	molecule	FGF22 binding
61	C[C@@H]1CN([C@@H](C)CO)C(=O)c2cc(NC(=O)C3CC3)ccc2O[C@@H]1CN(C)C(=O)Nc1ccc(C(F)(F)F)cc1	i
62	N#C[C@H]1[C@H](c2ccc(C#CCC3CCCC3)cc2)[C@@H](CO)N1C(=O)c1ccccn1	i
63	COCC(=O)Nc1ccc2c(c1)[C@H]1C[C@H](CC(=O)NCc3ccccc3OC)O[C@H](CO)[C@H]1O2	i
64	C[C@@H]1CCCCO[C@@H](CN(C)C(=O)CCCN(C)C)[C@H](C)CN([C@@H](C)CO)C(=O)c2cc(NC(=O)Nc3cccc4ccccc34)ccc2O1	i
65	O=C(C[C@@H]1CC[C@H]2[C@@H](COC[C@H](O)CN2C(=O)Nc2ccc(Cl)c(Cl)c2)O1)NC1CCC1	i
66	COC(=O)[C@@H]1[C@@H](CO)[C@@H]2Cn3c(ccc(C4=CCCCC4)c3=O)[C@@H]2N1CC1CCCCC1	i
67	CCC(=O)N1CC[C@@H]2[C@H]1c1cc(-c3cccc(OC)c3)ccc1N(C)[C@@H]2CO	i
68	C[C@@H]1CN([C@H](C)CO)C(=O)Cc2cc(NC(=O)NC3CCCCC3)ccc2O[C@@H]1CN(C)S(=O)(=O)c1cn(C)cn1	i
69	COc1ccc(CN(C)C[C@@H]2Oc3ccc(NS(=O)(=O)c4ccc(F)cc4)cc3C(=O)N([C@@H](C)CO)C[C@@H]2C)cc1	i
70	COCC#Cc1ccc2c(c1)O[C@@H](CN(C)Cc1ccccc1F)[C@H](C)CN([C@H](C)CO)S2(=O)=O	i
71	C[C@H](CO)N1C[C@H](C)[C@@H](CN(C)S(=O)(=O)c2ccc(F)cc2)Oc2cc(C#Cc3ccc(F)cc3)ccc2S1(=O)=O	i
72	O=C(Cc1ccncc1)Nc1ccc2c(c1)[C@H]1C[C@@H](CC(=O)NC3CCCCC3)O[C@@H](CO)[C@H]1O2	i
73	COCC#Cc1cnc2c(c1)C(=O)N([C@H](C)CO)C[C@H](C)[C@@H](CN(C)C(=O)CN1CCOCC1)O2	i
74	O=C(C[C@H]1CC[C@@H]2[C@H](COC[C@H](O)CN2S(=O)(=O)c2ccccc2F)O1)NCc1ccccc1F	i
75	CCCNC(=O)NC[C@H]1[C@H](c2ccc(C3=CCCCC3)cc2)[C@H](CO)N1C(C)=O	i
76	Cc1ccc(S(=O)(=O)N(C)C[C@@H]2Oc3c(NC(=O)c4cnccn4)cccc3C(=O)N([C@H](C)CO)C[C@@H]2C)cc1	i
77	C[C@@H]1CCCCO[C@H](CN(C)Cc2ccc(Cl)c(Cl)c2)[C@@H](C)CN([C@H](C)CO)C(=O)c2cc(NS(=O)(=O)c3ccc(F)cc3)ccc2O1	i
78	COc1ccc(NC(=O)Nc2ccc3c(c2)C(=O)N([C@H](C)CO)C[C@H](C)[C@H](CN(C)CC2CCCCC2)OCCCC[C@@H](C)O3)cc1	i
79	COc1ccc(CN2[C@@H]3CN(C(=O)C4CC4)c4ccccc4[C@@H]3[C@@H]2CO)cc1	i
80	O=C(C[C@@H]1C[C@H]2c3cc(NC(=O)c4ccc5c(c4)OCO5)ccc3O[C@H]2[C@H](CO)O1)NCc1ccc(Cl)cc1	i
81	C[C@H]1CN([C@@H](C)CO)C(=O)Cc2cc(NS(=O)(=O)c3cccs3)ccc2O[C@H]1CN(C)C(=O)NC1CCCCC1	i
82	CC(C)C[C@@H]1COc2cc(F)ccc2S(=O)(=O)N1	i
83	C[C@@H]1CN([C@H](C)CO)C(=O)c2cccc(NC(=O)c3nc4ccccc4s3)c2O[C@@H]1CN(C)S(=O)(=O)c1ccccc1	i
